VACV mCherry inh: vaccinia inhibition (mCherry reporter) | Vaccinia virus mCherry reporter infection, fluorescence; about a quarter of the inactives have no number | Potency, µM (series often up to 36.5 µM), for inactives: at the highest dose activity change, negative = inhibition, usual class: inhibitors | 310,000 compounds, 0.63% hits; active = well fitted inhibition curve with a large enough effect; inconclusive = small, poorly fitted or top-dose-only effect; inactive = no such curve, though single readings can be large or run the other way; tested in A549 cells; further: nearly all actives have a fitted effect of over 35% in size; inactives centre near -10
Vaccinia Venus: vaccinia inhibition (Venus reporter); Vaccinia virus Venus reporter expression, fluorescence; Potency, µM (doses to about 36.5 µM), for the others: at the highest dose activity change, negative = inhibition, usual class: inhibitors; 330,000 compounds, 0.46% hits; active means well fitted inhibition curve with a large enough effect; inconclusive means small, poorly fitted or top-dose-only effect; inactive means no such curve, though single readings can be large or run the other way; tested in A549 cells; further: nearly all actives have a fitted effect of over 30% in size; inactives centre near -10
Starred values were filed as active, the others as inactive; i = inactive; ? = inconclusive; . = no result given; [ ] = dose if it differs, or a comment. On the % scale 0 is the no-effect control and ±100 the full control effect; potency means the concentration at half of the fitted maximal effect. Not a hit list; about 0.87% have a hit in one of these screens.

canonical_smiles | VACV mCherry inh | Vaccinia Venus
CCCNC(=O)C1CC2Cn3c(nc4ccccc43)C2N1C (configuration not stated) | i | -2.7%
COc1ccc(/C=N/Nc2nc3ccccc3o2)cc1O | -10.5% | -8.1%
C/C=C\C=C\C(=O)N1CC2(CC(c3cccc(NC(=O)CC)c3)=NO2)C[C@H]1C(N)=O (some centres not stated) | i | -8.5%
Cc1cccc(-c2noc(-c3csc([C@@H]4C[C@H](O)[C@@H](CO)O4)n3)n2)c1 | 25.3% | -6.3%
O=C(Nc1cccc(Oc2ccc(C(=O)O)c(C(=O)O)c2)c1)c1ccc(-c2ccccc2)cc1 | -0.7% | -3.5%
COc1cc(/C=C/CO)cc(OC)c1OC/C=C(\C)CCC=C(C)C | 29.4% | 2.5%
Cc1c(NC(=O)c2cccs2)cccc1[N+](=O)[O-] | i | 11.4%
COc1ccccc1NC(=O)CN1C(=O)COc2ccc(C)cc21 | -19.4% | -5.6%
COc1ccc(-c2cc(-c3ccc(C)cc3)nc3c2COc2ccccc2-3)cc1 | 3.5% | 13.3%
OC[C@H]1O[C@@H](O[C@H]2[C@H](O)[C@@H](O)[C@H](O)O[C@@H]2CO)[C@H](O)[C@@H](O)[C@@H]1O | i | -0.3%
Cc1ccc(S(=O)(=O)N(CC(=O)N/N=C/c2ccco2)c2cc(Cl)cc(Cl)c2)cc1 | ? | -26.2%
Cc1nc2ccccn2c1C(=O)NNS(=O)(=O)c1ccc(C(C)(C)C)cc1 | -7.7% | -18.5%

Later entries
canonical_smiles | VACV mCherry inh | Vaccinia Venus
CCOC(=O)N1CCN(C(c2ccc(C)cc2)c2sc3nc(C)nn3c2O)CC1 (configuration not stated) | -27.4% | -6.8%
O=c1c(Cl)c(N2CCN(c3ccc(F)cc3)CC2)cnn1-c1nc2ccccc2s1 | i | -8.4%
Cc1noc(C)c1CCC(=O)N1CCCC(CO)(Cc2ccccc2)C1 (configuration not stated) | i | -12.6%
CC[C@H](C)[C@@H](C(=O)N1CCNCC1)n1cc([C@@H](N)CC(C)C)nn1 | -0.3% | -7.4%
Oc1c(Br)cc(Br)cc1CN1CCN(Cc2ccccc2)CC1 | -28.4% | -17.6%
CN(C(=O)c1cccc(NC(=O)Cc2ccc(NC(=O)C3CCN(C(=O)C4CCCCC4)CC3)cc2)c1)C1CCCC1 | -3.8% | -0.5%
Cc1ccccc1NC(=S)N(CCN1CCCCCC1)Cc1cccs1 | -11.6% | -21.6%
O=C1CCCC2=C1C(c1ccccc1)n1c(s/c(=C/c3cccc(F)c3)c1=O)=N2 (configuration not stated) | -10.9% | -1.7%
Cc1ccc(F)c([C@H]2[C@H]3C=CC[C@@H](C)[C@@H]3C(=O)N2Cc2ccccc2)c1 | -16.4% | -19.6%
CCOC(=O)c1sc(NC(=O)CSc2n[nH]c(-c3ccccc3)n2)c(C#N)c1C | ? | ?
CCCCN(CCCC)CCNC(=O)c1cc(-c2cccnc2)nc2ccc(S(=O)(=O)N3CCC(C)CC3)cc12 | -8.7% | -4.1%
O=C(O)c1ccc(NC(=O)c2cn(-c3ccccc3)nc2-c2ccc(F)cc2)cc1 | i | -11.2%

(cont.)
canonical_smiles | VACV mCherry inh | Vaccinia Venus
Cc1c(N=Cc2c(O)n(Cc3ccco3)c(=O)c3ccccc23)c(=O)n(-c2ccccc2)n1C | -32.0% | -22.4%
CN(C)CCN(Cc1ccccc1)S(=O)(=O)c1ccc(-c2ccc(=O)[nH]n2)s1 | -6.0% | -27.9%
COC(=O)c1ccc(N2C(c3cc(OC)cc(OC)c3)=Cc3ccc(-c4cnc(OC)nc4)cc3C2CC(=O)C2CC2)cc1 (configuration not stated) | 9.9% | 12.5%
CC(=O)Nc1ccc(C(=O)CSc2nnc(Cn3nnc4ccccc43)n2C)cc1 | i | -4.9%
Cc1ccc(NC(=O)Nc2ccc(Cl)cc2)c(Br)c1 | -7.8% | -3.6%
Cc1ccc(CNC(=O)c2cc(-c3ccccc3)nn2CC2CC(c3cccc([N+](=O)[O-])c3)=NO2)cc1 (configuration not stated) | i | -13.5%
O=C(Nc1ccc(N2CCOCC2)cc1)c1cccc2c(Br)cccc12 | -6.1% | -2.1%
COCc1cn(CC(=O)c2sc(NC(=O)C(C)(C)C)nc2C)nn1 | -4.9% | -8.8%
OCCNCC12CC3CC(CC(C3)C1)C2 | -9.4% | -11.9%
Cc1nn(S(=O)(=O)c2ccc(Br)cc2)c(C)c1S(=O)(=O)N1CCOCC1 | i | -19.7%
CCOC(=O)CC(=O)CSc1nc(-c2cccnc2)ccc1C#N | -15.8% | -2.9%
COc1ccc2[nH]c(=O)c(CN(CC3CCCO3)S(=O)(=O)c3ccccc3F)cc2c1 (configuration not stated) | -8.6% | -10.6%

(listing goes on)
canonical_smiles | VACV mCherry inh | Vaccinia Venus
COc1ccc(NC(=O)Cn2nnc(-c3ccccc3NS(=O)(=O)c3ccccc3)n2)cc1 | ? | -27.8%
O=c1c2ccccc2nc(-c2ccccc2)n1-c1ccccn1 | i | -9.1%
Cc1ccc(NC(=O)C(=O)NCC(c2ccc3c(c2)OCO3)N2CCN(C)CC2)c(C)c1 (configuration not stated) | -9.5% | -10.4%
COc1ccc(CNC(=O)CSc2cccc3cccnc23)cc1 | 11.1% | 0.0%
O=C(OCc1csc(-c2ccccc2)n1)c1ccccc1O | 1.1% | -5.2%
Fc1ccccc1COc1ccc2ccccc2c1CNc1nn[nH]n1 | i | -9.6%
COc1ccc2c(c1)nc(SCC(=O)C(C)(C)C)n2C | -6.9% | -2.2%
Cc1cccc(NC(=O)CSc2nc3nc(C)cc(C)c3c(=O)[nH]2)c1 | -17.3% | -10.2%
CCNC(=O)c1c2c(nc3ccccc13)C(=O)N(C1CCCCC1)C2 | -17.4% | -11.0%
COC(=O)C1[C@H]2SC(C)(C)C(C(=O)OC)N2C(=O)N1Cc1ccccc1 (some centres not stated) | -1.0% | -10.5%
O=C1/C(=C/c2cccc([N+](=O)[O-])c2)CSc2ccc(Cl)cc21 | -18.2% | -12.4%
O=C(NC1CCCCC1)C1CCC(CNS(=O)(=O)c2cccc3nsnc23)CC1 (configuration not stated) | i | -14.6%

Later entries.
canonical_smiles | VACV mCherry inh | Vaccinia Venus
COC(=O)COn1c(SCC(=O)OC)nc2ccccc2c1=O | -6.1% | -2.5%
COc1cc(CNCc2ccccn2)ccc1OCc1c(Cl)cccc1Cl | -25.6% | -26.4%
CCNc1nc(NCC)n2c(SCC(=O)Nc3c(C)cccc3C)nnc2n1 | i | -1.8%
Cn1nc(C(=O)OCC(=O)Nc2ccc(F)cc2Cl)c2ccccc2c1=O | -15.5% | -9.0%
COc1ccccc1C1Nc2c(sc3nc(C)cc(C)c23)C(=O)N1c1ccccc1 (configuration not stated) | -5.5%[7.34 µM] | -6.3%[7.34 µM]
O=C(CCn1cnc2ccccc2c1=O)NCc1ccccc1 | -4.3% | -5.0%
Cc1nn(C)c(C)c1S(=O)(=O)Nc1ccc2c(c1)OCO2 | i | -3.9%
O=C(O)/C(=C\c1ccc(Br)cc1)c1ccc(S(=O)(=O)N2CCCCC2)s1 | -4.8% | 7.5%
COc1ccc(-c2cc(C(=O)NC(Cc3c[nH]c4ccccc34)C(=O)O)c(C)o2)cc1OC (configuration not stated) | -4.2% | 5.6%
O=C(CN1CCN(C2CCCCC2)CC1)Nc1cccc2ccccc12 | -0.9% | -7.8%
CSc1nc2nc3c(cc2c(=O)n1-c1ccccc1C)CCCC3 | 10.2% | -17.7%
COc1ccc(CNC(=O)c2cc3sccc3n2Cc2ccc(F)cc2)cc1 | -13.9% | -8.4%

3 records picked at random from those above, as already listed:
canonical_smiles | VACV mCherry inh | Vaccinia Venus
COc1ccc(-c2cc(C(=O)NC(Cc3c[nH]c4ccccc34)C(=O)O)c(C)o2)cc1OC (configuration not stated) | -4.2% | 5.6%
CCNc1nc(NCC)n2c(SCC(=O)Nc3c(C)cccc3C)nnc2n1 | i | -1.8%
Cn1nc(C(=O)OCC(=O)Nc2ccc(F)cc2Cl)c2ccccc2c1=O | -15.5% | -9.0%

(next part)
canonical_smiles | VACV mCherry inh | Vaccinia Venus
CCn1c(NC(=O)c2cccc(Cn3cc(Cl)cn3)c2)nc2ccccc21 | ? | -28.4%
Cn1c(C(=O)N2CCCC(C(=O)NCCCSC3CCCCC3)C2)cc2sccc21 (configuration not stated) | -27.8% | ?
Cc1cc2c(=O)n(CC(=O)N3CCN(c4ccc(F)cc4)CC3)cnc2s1 | . | -26.9%
COc1ccc(S(=O)(=O)Cc2ccc(C(=O)N3CCN(c4ccccn4)CC3)o2)cc1 | i | -9.3%
O=C(N/N=C/c1c(O)n(-c2cccc3ccccc23)c(=O)[nH]c1=O)c1ccncc1 | -0.4%[7.34 µM] | -2.7%[7.34 µM]
O=C(CSc1nccn1Cc1ccccc1)Nc1ccccc1 | -6.2% | -16.8%
CC1=NCCN1S(=O)(=O)c1cc([N+](=O)[O-])ccc1Cl | ? | -3.7%
Cc1ccccc1OCC(=O)OCC(=O)Nc1cc(S(=O)(=O)N2CCCCC2)ccc1Cl | -0.2% | -16.9%
COCCNC(=O)CCCn1c(SCc2ccccc2Cl)nc2c(sc3ccccc32)c1=O | -12.2% | -16.3%
COc1ccc(N=Nc2c(-c3ccc(OC)cc3)[nH]oc2=O)cc1 | i | -10.9%
O=C(CSc1nncn1-c1cccnc1)Nc1ccccc1[N+](=O)[O-] | ? | -13.0%
CCCCCC1=CCC/C1=N\NC(=O)c1ccc2c(c1)OCO2 | -25.3% | -22.6%

A second format for 19 compounds above.
Every second line gives: VACV mCherry inh | Vaccinia Venus
CCNc1nc(NCC)n2c(SCC(=O)Nc3c(C)cccc3C)nnc2n1
  i | -1.8%
Cn1nc(C(=O)OCC(=O)Nc2ccc(F)cc2Cl)c2ccccc2c1=O
  -15.5% | -9.0%
COc1ccccc1C1Nc2c(sc3nc(C)cc(C)c23)C(=O)N1c1ccccc1 (configuration not stated)
  -5.5%[7.34 µM] | -6.3%[7.34 µM]
O=C(CCn1cnc2ccccc2c1=O)NCc1ccccc1
  -4.3% | -5.0%
Cc1nn(C)c(C)c1S(=O)(=O)Nc1ccc2c(c1)OCO2
  i | -3.9%
O=C(O)/C(=C\c1ccc(Br)cc1)c1ccc(S(=O)(=O)N2CCCCC2)s1
  -4.8% | 7.5%
COc1ccc(-c2cc(C(=O)NC(Cc3c[nH]c4ccccc34)C(=O)O)c(C)o2)cc1OC (configuration not stated)
  -4.2% | 5.6%
O=C(CN1CCN(C2CCCCC2)CC1)Nc1cccc2ccccc12
  -0.9% | -7.8%
CSc1nc2nc3c(cc2c(=O)n1-c1ccccc1C)CCCC3
  10.2% | -17.7%
COc1ccc(CNC(=O)c2cc3sccc3n2Cc2ccc(F)cc2)cc1
  -13.9% | -8.4%
CCn1c(NC(=O)c2cccc(Cn3cc(Cl)cn3)c2)nc2ccccc21
  ? | -28.4%
Cn1c(C(=O)N2CCCC(C(=O)NCCCSC3CCCCC3)C2)cc2sccc21 (configuration not stated)
  -27.8% | ?
Cc1cc2c(=O)n(CC(=O)N3CCN(c4ccc(F)cc4)CC3)cnc2s1
  . | -26.9%
COc1ccc(S(=O)(=O)Cc2ccc(C(=O)N3CCN(c4ccccn4)CC3)o2)cc1
  i | -9.3%
O=C(N/N=C/c1c(O)n(-c2cccc3ccccc23)c(=O)[nH]c1=O)c1ccncc1
  -0.4%[7.34 µM] | -2.7%[7.34 µM]
O=C(CSc1nccn1Cc1ccccc1)Nc1ccccc1
  -6.2% | -16.8%
CC1=NCCN1S(=O)(=O)c1cc([N+](=O)[O-])ccc1Cl
  ? | -3.7%
Cc1ccccc1OCC(=O)OCC(=O)Nc1cc(S(=O)(=O)N2CCCCC2)ccc1Cl
  -0.2% | -16.9%
COCCNC(=O)CCCn1c(SCc2ccccc2Cl)nc2c(sc3ccccc32)c1=O
  -12.2% | -16.3%

Continued.
canonical_smiles | VACV mCherry inh | Vaccinia Venus
COc1ccc(NC(=O)c2cc(-c3ccc(F)cc3OC(C)C)n[nH]2)c(OC)c1 | -4.7% | 3.1%
Cc1ccc2nc(-c3ccc(O)cc3)c(Nc3ccc(Cl)cc3)n2c1 | -13.6% | -22.8%
COc1ccc(N(C(=O)c2ccco2)C(C(=O)NC2CCCC2)c2ccc(C)cc2)c(OC)c1 (configuration not stated) | i | -7.2%
CSc1ccccc1C(=O)C1CCCN(Cc2cnn(-c3ccccc3)c2)C1 (configuration not stated) | ? | -9.6%
O=C(c1ccc(-c2ccccc2Cl)s1)N1CCOCC1 | i | -16.3%
COc1cc2nc(CN3CCN(S(=O)(=O)c4ccccc4)CC3)[nH]c(=O)c2cc1OC | i | -17.8%
COc1cccc(NC(=O)C(=O)NCCc2sc(-c3cccc(C)c3)nc2C)c1 | -5.9% | -5.7%
O=C(CCC(=O)OCCCC(F)(F)C(F)(F)F)Nc1ccc(Cl)cc1Cl | . | 6.3%
COc1ccccc1Nc1nc(-c2cccnc2)cs1 | -20.1% | -23.7%
CCC(C)(C)n1nnnc1C(c1ccccn1)N1CCOCC1 (configuration not stated) | -11.7% | -10.9%
CC(C)CC(CO)N1CCN(C(=O)c2ccc(C(C)(C)C)cc2)CCC1=O (configuration not stated) | -9.7% | -24.7%
C=CCn1c(O)c(C(C)=NCCN2CCN(C(=S)NC)CC2)c(=O)[nH]c1=O | -25.3% | -0.2%
CCC1=NN2C(=N)/C(=C\c3cccn3-c3ccc(Cl)cc3)C(=O)N=C2S1 | -0.6% | 8.5%
CCN(CC)P(=O)(c1ccccc1)c1c(C)nc2ccccn12 (configuration not stated) | 7.2% | -4.8%
